LT uptake inh: anthrax lethal toxin internalization inhibition; Cells, anthrax lethal toxin internalization, FRET ratio (460/530); Potency, µM (titrated, usually from 40 µM), for inactives: top-dose activity change, negative = inhibition, usual class: inhibitors; 70,000 tested, 0.67% active; AID 912; active = well fitted falling ratio curve with the 530 nm signal flat; inconclusive = other ratio curves, or a change in one channel alone; inactive = flat curves in the ratio and both channels; the % refers to the ratio; further: on the % scale 0 is the no-effect control and ±100 the full control effect; nearly all actives have a fitted effect of over 50% in size; tested in ME-180 cells; beta-lactamase reporter
SmPrx2 inh: Schistosoma mansoni Prx2 inhibition; 65,000 tested, 0.07% active; S. mansoni Prx2 activity coupled to TGR/GSH (TGR is thioredoxin glutathione reductase), NADPH fluorescence loss, qHTS; some inactives read as strong as hits; Potency, µM; active means full or partial inhibition curve with a strong effect at the top dose; inconclusive means weaker partial or single-point curve; inactive means no accepted curve; further: series up to 57 µM; many of its hits are not listed in these tables
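Purified S. mansoni TGR and Prx2 in pH 7.4 phosphate buffer with EDTA and Tween-20 were preincubated with compounds for 15 min. Further NADPH/GSH was added, then a 2.5 mM H2O2 aliquot initiated turnover, followed kinetically by NADPH fluorescence.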
Starred values were filed as active, the others as inactive; ? = inconclusive; · = not tested or not shown; & = joins results of further samples; [ ] = another dose, or the depositor's remark. Potency means the concentration at half of the fitted maximal effect. An excerpt; rates above refer to the full screens.

Molecule | LT uptake inh | SmPrx2 inh
CCc1ccc(-c2nc(CSCC(=O)N3CCN(c4ncccn4)CC3)c(C)o2)cc1 | -20.0% | >57
CN(Cc1ccccc1)C(=O)CCNS(=O)(=O)c1ccc2c(c1)oc(=O)n2C | 7.8% | >57
CCN(CC)CCNC(=O)Cn1nc(Cc2ccccc2)c2ccccc2c1=O | -2.1% | ·
O=C(CCS(=O)(=O)c1cccc2nonc12)N1CCCc2ccccc21 | 9.3% | >57
CCn1cc(C(=O)NCc2cccnc2)c2cc(OC)c(OC)cc2c1=O | -4.3% | >57
O=C(NCCCCNC(=O)c1ccco1)c1ccco1 | 10.5% | >57
C[N+](C)(C)CCC(=O)c1cccc2ccccc12 | 25.1µM* | >57
O=C(CCc1nc(-c2cccs2)no1)Nc1cnc2ccccc2c1 | 7.1% | >57
Cn1c(=O)[nH]c(=O)c2c1nc(NCCc1ccccc1)n2CC(O)COc1ccccc1 (stereo not given) | -1.1% | >57
Oc1ccc(C(c2nnnn2C2CCCC2)N2CCc3ccccc3C2)cc1 (stereo not given) | -5.3% | >57
COc1ccc(OC2C(O)COC2/C=C/C#Cc2ccccc2)cc1 (stereo not given) | -4.6%[8 µM] | ·
CCOC(=O)c1c(C2CC2)csc1NC(=O)CSCc1c(C)noc1C | ? | >57
COc1cc(/C=C\C(=O)N2CCCCC2=O)cc(OC)c1OC | ? | ·
CCOC(=O)C1CCN(C(=O)c2cn(-c3ccccc3)nc2-c2cccnc2)CC1 | 4.2% | >57
CC(=O)N1CCC(Nc2ccc(C)cc2)CC1 | 3.0% | >57
COc1ccc2c(c1)CCc1c(C(=O)N3CCCCCC3)noc1-2 | -9.6% | >57
Cc1cc(NC(=O)c2cc3n(n2)C(C(F)(F)F)CC(c2ccco2)N3)no1 (stereo not given) | -14.9% | >57
O=C(O)[C@H](CCc1ccccc1)N1C(=O)c2ccccc2C1=O | -3.6%[8 µM] | >57
CCC1(C)Cc2c(c(=O)n(-c3ccccc3)c3ncnc(N)c23)CO1 (stereo not given) | 0.7% | >57
Cn1nnc2cc(C(=O)NC3CCCCC3)ccc21 | -2.8% | >57

Entries of single compounds, looked up by structure:
Record of CCOC(=O)c1c(C2CC2)csc1NC(=O)CSCc1c(C)noc1C → LT uptake inh: ?; SmPrx2 inh: >57
Record of CCC1(C)Cc2c(c(=O)n(-c3ccccc3)c3ncnc(N)c23)CO1 (stereo not given) → LT uptake inh: 0.7%; SmPrx2 inh: >57

(list continues)
Molecule | LT uptake inh | SmPrx2 inh
CCCCNC(=O)CSc1cc(=O)n(C)c2ccccc12 | -14.0% | >57
O=C(C1CCCN(S(=O)(=O)c2cnc[nH]2)C1)N1CC(=O)N(CCc2ccccc2)C(=O)C1 (stereo not given) | -2.6% | >57
Cc1n[nH]c(C)c1S(=O)(=O)N1CCN(C(=O)c2ccco2)CC1 | 17.7% | >57
O=C(NCc1ccco1)c1c2c(nc3ccccc13)CCC2 | -5.4% | >57
O=C(CC1Oc2ccccc2NC1=O)NCCCN1CCN(Cc2ccccc2)CC1 (stereo not given) | -27.3% | >57
NCCCCCCNS(=O)(=O)c1cccc2c(Cl)cccc12 | ? | >57&>57
CN(C)c1ncc2nc(-c3ccccc3)c(=O)n(CCC#N)c2n1 | ? | >57
COc1ccc(C)cc1S(=O)(=O)N(CC(=O)O)c1ccc(C)cc1 | -3.4% | >57
COC(=O)C(Cc1ccc(O)cc1)NC(=O)C(C)Oc1ccccc1 (stereo not given) | 8.5% | >57
CCOc1ccc(C(=O)COC(=O)CC)cc1 | -8.4% | ·
C=CCN(c1ccc(C(=O)N2CCCC2)cc1)S(C)(=O)=O | 4.4% | >57
O=C(Nc1ccc2c(c1)OCCO2)c1ccc(NC(=O)C2CCCO2)cc1 (stereo not given) | 8.3% | >57
Cc1cn([C@H]2C=C[C@@H](CO)O2)c(=O)[nH]c1=O | 4.1%&3.6% | ·
O=C(Oc1ccccc1OC(=O)N1CCOCC1)N1CCOCC1 | -2.9% | >57
COc1cc(C)nc(OCCNC(=O)COc2ccc(Cl)cc2Cl)n1 | -2.9% | >57
CN1CCN(Cc2cc(=O)oc3ccc(Cl)cc23)CC1 | -3.8% | >57
CP(=O)(O)C1=CCNCC1 | 1.2% | >57
CC(C)C(=O)Nc1cccc(C(=O)Nc2nccs2)c1 | 4.1% | >57
O=C(O)c1ccc2c(c1)C(=O)N(c1cc(C(=O)O)ccc1Br)C2=O | 5.0% | >57
NC(N)=N/N=C\c1ccc(C2CCNCC2)cc1 | 15.5%[8 µM] | >57
Cc1ccc2c(c1)CCCN2C(=O)c1cccs1 | -9.2% | >57
COc1cc(OC)c(OC)cc1CNCCNC(=O)c1nonc1N | -4.5% | >57
COc1ccc(NC(=O)CSc2nc3sc(C)c(C)c3c(=O)n2Cc2ccco2)cc1 | -13.2% | >57
Cc1nc2ccccn2c1-c1csc(NCc2ccco2)n1 | 0.0% | >57
COc1ccc(-c2cnc(N)nc2-c2ccc(OC)cc2O)cc1 | · | >57
CC(O)CNC(=O)C1CCN(Cc2ccc(OCc3ccccc3)cc2)CC1 (stereo not given) | 6.4% | >57
Cc1ccc2cc(CN(CCCN3CCOCC3)C(=O)NC3CCCCC3)c(=O)[nH]c2c1C | -8.6% | >57
O=C(/C=N/O)NCc1cccnc1 | -6.0% | >57
CCCCCCn1c(CN2CCC(C)CC2)nc2c1c(=O)n(C)c(=O)n2C | 10.0% | >57
CC1CN(C(=O)COC(=O)c2cccs2)CC(C)O1 (stereo not given) | 0.1% | >57
CN1CCCCCC1=NC1=C(C#N)CCCC1 | 8.3% | >57
O=C(C1CC1)N1CCc2cc(Br)cc(S(=O)(=O)N3CCN(c4ccccn4)CC3)c21 | -16.9% | >57
COC(=O)c1ccc(NC(=O)CSc2nnc(Cc3cccn3C)n2-c2ccc(F)cc2)cc1 | 5.3% | >57
O=C(c1nnc(Cc2ccc(Cl)cc2)o1)N1CCOCC1 | 5.5% | >57
Cn1c(Br)nc2c1c(=O)n(CC(O)COc1ccccc1)c(=O)n2C (stereo not given) | ? | >57
CCN(CC)C(=O)CN1CCC(n2c(C)nc3cc(C(F)(F)F)ccc32)CC1 | 11.3% | >57
C[N+]1(C)CCc2cc(O)c(O)cc2[C@H]1Cc1ccc(O)c(O)c1 | 5.9%[8 µM] | >57
C=CCOc1ccc(C2/C(=C(\O)c3c(C)[nH]c(C(=O)OC)c3C)C(=O)C(=O)N2CCN(C)C)cc1 (stereo not given) | -4.1% | >57
COC(=O)c1cc(OC)c(OC)cc1NC(=O)CCc1ccc(C)o1 | -17.0% | >57
Cc1cccc(-n2c(SCCC(=O)O)nnc2-c2cccs2)c1C | 6.5% | >57
C=CCn1c(SCc2csc(C)n2)nc2scc(-c3ccc(C)o3)c2c1=O | 3.6% | >57
c1csc(CCNc2ncnc3sc4c(c23)CCC4)c1 | ? | >57
COc1ncc2nc(-c3cccs3)c(=O)n(Cc3ccc(F)cc3)c2n1 | ? | >57
CN(c1ccccc1)c1nc(-n2ccnc2)nc(-n2ccnc2)n1 | 22.9% | ·
COc1ccc(-n2c(Cn3c(=O)sc4ccccc43)nnc2SC)cc1 | -25.0% | >57
COc1cc(C2C(C(=O)OC(C)C)=C(C)Nc3ncnn32)cc(OC)c1OC (stereo not given) | -0.8% | >57
O=C(CN1CCCN(S(=O)(=O)c2ccc(Br)cc2)CC1)Nc1ccc2cn[nH]c2c1 | -0.3% | >57
Cn1c(=O)[nH]c(=O)c2c1nc(Br)n2CC(O)c1ccccc1 (stereo not given) | ? | >57
Oc1cc2c(cc1CN1CCN(c3ccccc3)CC1)CCC2 | -10.0% | >57
O=C(NCC1CC1)[C@@H]1C[C@H]1[C@@H](NP(=O)(c1ccccc1)c1ccccc1)c1ccccc1 | 3.4% | >57

(cont.)
Molecule | LT uptake inh | SmPrx2 inh
CN(CC(=O)Nc1ccc(Cl)cc1)CC(=O)Nc1cc(Cl)ccc1C#N | -27.9% | >57
CC(=O)Nn1c(-c2ccccc2)cc2ccccc21 | -16.7% | >57
CCC(C)(C(=O)NC1CCCC1)N(CC1CCCO1)C(=O)c1ccc2c(c1)OCO2 (stereo not given) | -6.9% | >57
CS(=O)(=O)N(CCc1ccccc1)CC(=O)N1CCN(Cc2ccccc2)CC1 | 0.1% | >57
Cn1cc(/C=N/n2cnc3scc(-c4ccccc4)c3c2=O)c2ccccc21 | -12.7% | >57
CC(=O)Nc1c(O)nc(SCC(=O)Nc2ccc(C(C)=O)cc2)[nH]c1=O | ? | >57
Cc1cccc(N2CCN(C(=O)c3ccc(NS(=O)(=O)c4c(C)noc4C)cc3)CC2)c1C | -11.7% | >57
CCS(=O)(=O)N1CCCC(C(=O)NCCCN(C)Cc2ccccc2)C1 (stereo not given) | -8.8% | >57
CCn1c(=O)c(=O)[nH]c2cc(C(=O)NC3CCCc4ccccc43)ccc21 (stereo not given) | 2.6% | >57
CCC(=O)c1cc(F)c(N2CCN(C(=O)Cc3ccccc3)CC2)cc1C | -19.4% | ·
CCN(C#N)c1nc(N(C)C)nc(N(C)C)n1 | · | >57
O=C(CC1N=C2c3ccccc3N=C(SCc3ccccc3Cl)N2C1=O)NCc1ccco1 (stereo not given) | ? | >57
CCn1cnc2cc(NCc3ccncc3)ccc21 | 8.6% | >57
NC(=O)CCn1c(=O)oc2ccccc21 | ? | >57
NC(=O)CSc1nnc(Cn2c(=O)sc3ccccc32)n1CCc1ccccc1 | 9.7% | >57
COC(=O)[C@@]1(Cc2ccc(OC)cc2)[C@H]2c3cc(C(=O)N(C)C)n(Cc4ccccc4)c3C[C@H]2CN1C(=O)c1ccccc1 | -6.6% | >57
NC(=O)C1CCN(c2nc(C3CC3)nc3c2nnn3Cc2ccccc2)CC1 | 11.7% | >57
O=C(NCc1cccs1)c1csc2ccccc12 | -2.6% | >57
CCOC(=O)OCC | -0.6% | ·
CCOC(=O)c1ccccc1NC(=O)CSc1ncc(C(=O)OCC)c(N)n1 | -14.1% | >57
COCCn1nnnc1C(c1ccc(Cl)cc1)N1CCSCC1 (stereo not given) | -5.9% | >57
O=c1cc(-c2ccc(Cl)cc2)[nH][nH]1 | 11.8% | >57
CCc1nnc(NC(=O)C2CCCCC2)s1 | 4.8% | ·
CCOC(=O)C(NC(=O)CC)(Nc1cc(C)on1)C(F)(F)F (stereo not given) | -3.6% | >57
COc1ccc(OC)c(CN2C(=O)c3ccccc3C2C(=O)NCc2cccnc2)c1 (stereo not given) | 0.9% | >57
Cc1ccc(C(=O)C2COC(=O)C2)cc1 (stereo not given) | ? | >57
O=C(O)c1ccc(OCc2ccccc2)c(Cl)c1 | -8.9%[8 µM] | >57
Cn1c(=O)[nH]c(=O)c2c1nc(NCCCn1ccnc1)n2Cc1cccc(Br)c1 | -4.8% | >57
CC(=O)c1n[nH]nc1Nc1nc(C)cc(C)n1 | 5.8% | >57
O=C1C2Cc3c([nH]c4ccccc34)C(c3ccccc3)N2C(=O)C2Cc3c([nH]c4ccccc34)C(c3ccccc3)N12 (stereo not given) | -15.1%[8 µM] | ·
COc1ccc(OCCSc2ncccn2)cc1 | 1.8% | >57
Cc1ccccc1OCC(=O)Nc1cccc(N(C)S(C)(=O)=O)c1 | -8.8% | >57
COc1ccc(NC(=O)CN2C3CCC2CC(O)(c2cccnc2)C3)cc1OC (stereo not given) | -4.8% | >57
CCOC(=O)Cc1csc(NC(=O)CSc2nnnn2-c2ccc(F)cc2)n1 | -8.5% | >57
CCn1cc(C(=O)N2CCN(c3ccccn3)CC2)c2cc(OC)c(OC)cc2c1=O | -3.4% | >57
COc1ccc(C(=O)N(Cc2ccco2)Cc2cc3cc(C)ccc3[nH]c2=O)cc1OC | 4.6% | >57
O=C(O)CS(=O)(=O)CC(=O)O | -0.9% | >57
Cc1ccccc1Cn1ccc(NC(=O)c2onc(C)c2Cl)n1 | -16.3% | >57
CCC(C)Sc1nnc(Cc2cc(=O)[nH]c(=O)[nH]2)n1-c1ccc(OC)cc1 (stereo not given) | -12.4% | >57
O=C(CSc1nnnn1Cc1ccccc1)NCCc1ccccc1 | -4.3% | >57
O=C(c1cnccn1)N1CCC2(CCCN(c3ccccc3)C2)CC1 | 21.9% | >57
CC/C(CC(C)(C)c1ccccc1)=N\O | -0.1% | >57
CCn1c(=O)n(CC(=O)N2CCC3(CC2)OCCO3)c(=O)c2ccccc21 | 6.1% | >57
CC(C)CC1OCCC=CC1C (stereo not given) | -6.5%[8 µM] | ·
Cn1c(=O)c2ncn(CC(=O)Nc3cc(C(F)(F)F)ccc3N3CCOCC3)c2n(C)c1=O | · | >57
CCC(=O)N1CCN(C(=O)c2ccccc2)CC1 | -5.1% | >57
CCOC(=O)CN1C(=O)C(C)(C)Oc2ccc(C(=O)Nc3ccccc3OC)cc21 | ? | >57

Assay outcomes as filed in PubChem BioAssay.
